eIF4H FP inh: inhibitors of RNA binding by human eIF4H; 290,000 tested, 0.94% active; AID 2012; eIF4H fluorescence polarization binding assay; Q15056; inhibition, % at 35 µM;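 active = 50% or more with normal probe brightness, or confirmed in later tests; inconclusive = above 50% with abnormal brightness, or retests that disagree; inactive = below 50% or failed in later tests; about a fifth of its hits are not listed in these tables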;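 note: calls also rest on retests at 20 µM and on dose response follow-up; 0% = protein and probe with vehicle and 100% = probe without protein; strong numbers were not always called active; many hits fall short of the cut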
PABP polyA inh: PABP-poly(A) binding inhibition; P11940; PABP-poly(A) RNA binding, fluorescence polarization; inhibition, % at 35 µM; 290,000 tested, 1% active; AID 2014;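 active = 50% or more with normal probe brightness, or confirmed in later tests; inconclusive = above 50% with abnormal brightness, or retests that disagree; inactive = below 50% or failed in later tests; about a fifth of its hits are not listed in these tables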;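 note: calls also rest on retests at 20 µM and on dose response follow-up; controls were probe without protein and protein plus probe with vehicle; some compounds called inactive have numbers as strong as hits; many hits fall short of the cut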
HIV Env fusion: inhibitors of HIV Env-mediated cell fusion. HeLa-JRFL Env/CEM21 cell fusion, luciferase. AID 651610. 360,000 tested, 1.1% active. inhibition, % at 12.3 µM;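 active = mean replicate inhibition score of at least 50 and every replicate individually at or above 50; inconclusive = only one of the two criteria met; inactive = mean below 50 and not all replicates reaching 50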;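 note: 0% = plate neutral controls and 100% = maraviroc near 300 nM; one replicate is shown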
Yeast UUG start: yeast start codon fidelity modulation; activity score, % at 18.7 µM; 350,000 tested, 0.13% active; S. cerevisiae UUG-firefly luciferase reporter, luminescence/redox ratio;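 active = replicate mean at a twofold rise or more, about +100% in these data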;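 note: firefly luciferase made from a UUG start codon reports start codon fidelity; reporter light over untreated wells divided by growth signal over untreated wells; some hits fall short of that in this replicate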
CSC inhib: cancer stem cell inhibition; cancer stem cell-like cells viability, luminescence; inhibition, % at 7.5 µM; 300,000 tested, 1.1% active;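 active = mean at 75% or more and at least half the replicates too; inconclusive = mean and replicates disagree; tested in HMLE shEcad cells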;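 note: 0% = median of negative and 100% = median of positive control wells; the first replicate is given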
Rce1 inh: blocks yeast Ras-converting enzyme; calls only; AID 2563; yeast membranes, quenched prenylated peptide cleavage fluorescence; 290,000 tested, 0.27% active; Q03530;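 active = fall in fluorescence gain of 50% or more versus controls, with final raw signal at or below 3038400; inconclusive = same 50% fall but final raw signal above 3038400; inactive = fall in fluorescence gain under 50%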;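 note: plate controls were neutral control wells for no effect and wells lacking membranes for full effect; tested at 10 µM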
Target sequence (Q03530 whole entry, looked up): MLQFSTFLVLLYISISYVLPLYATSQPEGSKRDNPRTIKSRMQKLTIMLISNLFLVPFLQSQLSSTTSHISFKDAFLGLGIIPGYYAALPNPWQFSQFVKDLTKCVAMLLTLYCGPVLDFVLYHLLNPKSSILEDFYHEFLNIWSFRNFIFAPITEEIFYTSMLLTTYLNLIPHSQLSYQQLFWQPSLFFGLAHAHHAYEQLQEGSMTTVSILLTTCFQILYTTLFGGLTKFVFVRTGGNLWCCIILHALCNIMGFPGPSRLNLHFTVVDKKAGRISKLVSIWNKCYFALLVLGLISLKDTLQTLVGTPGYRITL
MT1-MMP act inh: blocks activation of human MT1-MMP | HT1080 RFP-PRO-GFP cells, GFP/RFP ratio fluorescence, overnight; percent of plate control window, DMSO zero | GFP/RFP ratio change, % at 20 µM | 360,000 tested, 0.061% active | AID 651647;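 active = GFP/RFP ratio change of at least 30% with cell ATP level not reduced by more than half and red fluorescence within 50% of control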; note: strong numbers were not always called active
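Compound: 20 µM single dose, 1% DMSO / System: HT1080 RFP-PRO-GFP cells / Controls: DMSO and RFP-L50D-GFP cell wells / Read-out basis: GFP/RFP fluorescence ratio / Schedule: overnight compound exposure at 37 °C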
MT1-MMP act inh RFP: second read-out of MT1-MMP act inh, no call of its own (marks repeat the call); RFP signal change, %; measured here: RFP expression control read;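 0 = vehicle wells; hits needed this value within 50% of zero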
Starred values were filed as active, the others as inactive; i = inactive; ? = inconclusive; . = no result given; & = joins results of further samples; [ ] = dose if it differs, or a comment. This is a subset; the hit share may differ from the screen's.

SMILES	eIF4H FP inh	PABP polyA inh	HIV Env fusion	Yeast UUG start	CSC inhib	Rce1 inh	MT1-MMP act inh	MT1-MMP act inh RFP
Cc1ccc(C(=O)N2CCN(C34CC5CC(CC(C5)C3)C4)CC2)o1	7.5	-6.1	-6.6	-1.6	-6.1	i	-0.5	1.6
CC(=O)c1ccc(N2CCN(c3ccc4cc(S(=O)(=O)N5CCC(C)CC5)ccc4n3)CC2)cc1	-5.0	-23.2	-7.4	11.3	.	i	-2.4	-12.6
O=[N+]([O-])c1ccc2oc(C3CCCCC3)nc2c1	-11.6	17.5	-4.1	-1.6	2.3	i	-1.2	1.0
Cc1cccn2c(=O)c3cc(C(=O)NCC(C)C)sc3nc12	-7.4	1.0	-8.8	-1.1	-0.7	i	-0.1	-4.8
COC(=O)c1ccc(Oc2nc3c(c(=O)n(C)c(=O)n3C)n2CCC(C)C)cc1	-6.2	-5.2	.	-14.2	-8.9	i	1.6	-4.8
CN(Cc1ccc(Cl)s1)C(=O)CCl	-1.3	-0.6	-0.9	.	5.4	i	3.4	-5.3
COc1cccc(NC(=O)[C@H](NC(=O)[C@@H]2Cc3ccccc3CN2)c2ccccc2)c1	-5.3	0.7	-83.0	-6.8	-15.0	i	-0.8	1.9
O=C(C[C@@H]1C/C=C\CC[C@H](Cc2ccc(F)cc2)C(=O)OC[C@@H]2CCCN2C1=O)N[C@H](CO)Cc1ccccc1	.	.	-11.2	31.3	11.1	.	0.3	-8.1
COc1ccc(/C=N/n2c(C)nc3sc(C)c(C)c3c2=O)cc1OC	-7.2	1.4	-4.5	.	7.1	i	2.7	6.9
COc1ccc(NC(=O)CSCC(=O)Nc2ccccc2N2CCCC2)cc1	.	.	0.3	-8.5	-9.5	i	3.2	1.9
CC(C)CNC(=O)C(=O)NN=C1CCCCCC1	-5.3	-13.3	-3.9	-6.0	4.8	i	-3.2	-1.5
CN=C1SC(CC(=O)Nc2ccc(F)cc2F)C(=O)N1/N=C/c1ccc(OC(F)F)c(OC)c1 (configuration not stated)	3.1	-0.7	3.8	-7.3	-5.9	i	4.3	-1.3
COc1ccc(C2c3ccc(O)cc3Oc3ncn4nc(-c5cccnc5)nc4c32)cc1OC (configuration not stated)	-1.7	3.0	18.5	.	2.6	i	4.7	-11.2
CCO[C@H]1OC(C(=O)N2CCOCC2)=C[C@@H](c2ccc3c(c2)OCO3)[C@@H]1CCCO	-15.9	-0.2	-8.0[16.7 µM]	-11.8&6.2	-0.7	i	-2.1	2.7
CC1=CCC2C(=O)N(c3ccc(C)cc3)C(=O)C2C1 (configuration not stated)	-7.2	-7.0	.	.	-14.3	i	8.7	0.3
CCOC(=O)C(=O)Nc1nnc(COc2ccccc2)s1	-5.0	0.6	1.3	-17.3	0.5	i	-0.5	2.5
N/C(=N\OC(=O)COc1ccc(Br)cc1)c1cccnc1	-7.9	17.1	-17.2	-10.0	0.4	i	3.4	-11.7
CC(NC(=O)c1cccs1)c1ccc(Br)cc1 (configuration not stated)	.	.	3.6	-14.0	-0.3	i	-1.2	-0.7
O=C(NC(=S)NCc1ccccc1)c1ccc(Br)cc1	.	.	-5.2	-22.8	26.1	.	-0.3	-1.6
Cc1ccc(N2C(=O)CC(n3ccnc3)C2=O)cc1C (configuration not stated)	3.6	0.4	-44.9	-10.9	-5.0	i	3.1	4.6
CC(C)c1nn2c(=O)cc(COc3cccc(NC(=O)c4ccco4)c3)nc2s1	1.6	8.2	-5.4	-13.2	4.3	i	-1.8	-1.7
COc1ccc(CNC(=O)C(c2ccncc2)N(C(=O)Cc2cccs2)c2cccnc2)cc1 (configuration not stated)	-2.9	4.6	1.5	-10.6	-7.5	i	-4.2	-2.3
O=C(CCC(=O)N1CCSc2ccccc21)NCc1ccccc1	0.5	-6.1	-12.3	-8.4	-12.2	i	3.3	0.1
CCOC(=O)c1ccc(NS(=O)(=O)c2ccc(Cl)nc2)cc1	-7.4	-11.6	.	.	-9.5	i	.	.
COc1ccccc1-c1cccc([C@@H]2C[C@H]3[C@@H](CN2)CON3C)c1	.	.	-19.9	6.7	.	.	4.4	7.0
O=C(Nc1nc(-c2ccc(Cl)cc2)cs1)C1=COCCO1	.	.	-11.7	-18.0	0.0	i	1.0	-2.6
CCCCn1nc2cc(C(=O)NCc3ccccc3OC)ccc2c1OCC	-8.1	-6.9	?	-21.7	3.5	i	1.5	4.2
CCn1c(=NC(=O)c2cccc(N3C(=O)CCC3=O)c2)sc2c(OC)ccc(OC)c21	-11.7	25.2	11.7	-11.1	11.5	i	2.9	0.0
CCOc1ccccc1N(CC(=O)Nc1cccc2ccccc12)S(C)(=O)=O	-3.5	8.1	7.9	1.2	-3.6	i	3.4	3.0
Cc1c(C(=O)Nc2nnc(C(F)(F)F)s2)oc2ccccc12	-3.9	2.4	.	-10.9	.	i	-1.8	-23.6
CCOC(=O)C1=C(C)N(CCCCCC(=O)O)C(=O)NC1c1ccc(Br)cc1 (configuration not stated)	-2.3	-2.5	?	-4.9	-11.3	i	5.6	1.6
CCn1c(C(=O)O)c(CC(=O)N(C)c2ccc(OC)cc2OC)c2ccccc21	-6.5	7.8	6.3	3.9	-2.7	i	4.9	7.0
COc1ccc(OC)c(C2C(C(=O)c3cccs3)=C(O)C(=O)N2CCN(C)C)c1 (configuration not stated)	-1.9	4.7	-26.8	-21.2	-3.1	i	4.3	1.5
Cc1ccc(CNC(=O)C2c3ccccc3C(=O)N(C)C2c2c[nH]c3ccccc23)o1 (configuration not stated)	2.2	3.3	.	.	-4.8	i	.	.
CC1(C)CC(=O)C(CC(=O)c2ccccc2)=C(NN=C(N)N)C1	.	.	2.4	-14.7	.	.	-0.6	2.2
CC(C)COc1cccc(C(=O)Nc2ccc(S(=O)(=O)N3CCOCC3)cc2)c1	-2.0	-17.4	24.6	-7.5	59.1	i	-5.7	-6.6
COc1ccc(S(=O)(=O)N2CCOCC2)cc1NC(=O)CN1C(=O)NC2(CCCC2)C1=O	.	.	.	-5.6	1.4	.	-1.2	4.3
CCCS(=O)(=O)c1c(S(=O)(=O)CCC)c2cc(CC)ccn2c1C(=O)OC	2.1	1.8	-67.2	-0.9	3.0	i	-10.5	-6.1
CC(=O)c1cccc(OCc2cc(C(=O)NC3CCN(Cc4ccccc4)CC3)no2)c1	2.0	-6.1	-12.9	6.7	25.3	i	-0.2	-9.0
CCSc1nnc(NC(=O)CSc2nc3c(c(=O)n2C)SC(C)C3)s1 (configuration not stated)	-3.2	6.0	.	-6.5	-5.7	i	0.6	-15.3
Cc1nn(-c2ccccc2)c2c1C1(C(=O)N3c4c(cccc41)C(C)CC3(C)C)C(C#N)=C(N)O2 (configuration not stated)	8.7	14.5	.	-8.1	0.2	i	-0.1	-2.8
CCOC(=O)c1c(C)[nH]c(C)c1C(=O)COC(=O)c1cccnc1SC	.	.	-1.2	-13.5	.	.	-4.9	-0.2
Cc1ccccc1Nc1nc(-c2cccnc2)nc2ccccc12	-0.7	-8.8	5.6	-6.3	-2.2	i	-4.8	-5.7
COc1ccc2nc(/N=C(\N)NC(=O)N3c4ccccc4Sc4ccccc43)nc(C)c2c1	2.4	-4.7	-9.4	-5.7	24.9	i	0.8	-1.9
COc1ccc(-c2nnn(CC(=O)NCc3cccs3)n2)cc1OC	2.0	3.5	-6.8	7.6	-7.6	i	0.9	-6.7

Entries of single compounds as entered above.
Shown for COc1ccc(-c2nnn(CC(=O)NCc3cccs3)n2)cc1OC : eIF4H FP inh = 2.0; PABP polyA inh = 3.5; HIV Env fusion = -6.8; Yeast UUG start = 7.6; CSC inhib = -7.6; Rce1 inh = i; MT1-MMP act inh = 0.9; MT1-MMP act inh RFP = -6.7
Shown for COc1ccc(OC)c(C2C(C(=O)c3cccs3)=C(O)C(=O)N2CCN(C)C)c1 (configuration not stated) : eIF4H FP inh = -1.9; PABP polyA inh = 4.7; HIV Env fusion = -26.8; Yeast UUG start = -21.2; CSC inhib = -3.1; Rce1 inh = i; MT1-MMP act inh = 4.3; MT1-MMP act inh RFP = 1.5

Continued.
SMILES	eIF4H FP inh	PABP polyA inh	HIV Env fusion	Yeast UUG start	CSC inhib	Rce1 inh	MT1-MMP act inh	MT1-MMP act inh RFP
COc1ccc(C)cc1NC(=O)C1CC(=O)N(CCc2ccc(F)cc2)C1 (configuration not stated)	.	.	2.7	-22.0	.	.	-1.4	4.1
COc1ccc(OC)c(NC(=S)NN2CCN(C)CC2)c1	-2.9	-1.9	-125.8	9.1	-9.6	i	-0.6	6.2
O=C(COc1ccccc1)Nc1cccc(-c2nnc(-c3ccccc3)o2)c1	6.4	1.4	.	-12.9	.	.	10.5	0.1
CCC(=O)c1cn([C@H](CCC(OC)OC)CC(=O)OC(C)(C)C)cc1CC	.	.	0.8	6.5	-2.1	i	-4.5	0.9
CCOCCCNC(=O)c1cn(C)c2ccc(S(=O)(=O)N3CCCC3)cc2c1=O	0.9	-5.5	1.5	-14.1	-0.2	i	-0.9	0.4
COc1ccc(N2CCN(S(=O)(=O)CCNC(=O)C34CC5CC(CC(C5)C3)C4)CC2)cc1	-16.3	0.3	17.5	-5.3	6.7	i	-0.6	-9.3
O=C(CN1CCN(CN2C(=O)NC3(CCCCCC3)C2=O)CC1)Nc1cccc(F)c1	.	.	0.3	-5.5	.	.	-1.2	-2.1
CCC(c1nnnn1-c1ccc(OC)cc1)N1CCN(C/C=C/c2ccccc2)CC1 (configuration not stated)	.	.	11.0	-4.0	.	.	-2.7	-5.0
Cc1cccc(NC(=O)C2CCCN2C(=O)Oc2ccccc2)c1 (configuration not stated)	-1.5	-1.9	.	-14.0	1.0	i	0.6	3.2
C1=CC(c2cc3ccccc3o2)OC(CCc2ccccc2)C1 (configuration not stated)	1.2	-4.9	-9.0	-4.3	-6.0	i	2.1	2.5
COc1cccc(-c2cnc3c(NC=O)cc(-c4cccc(NC(C)=O)c4)cn23)c1	.	.	-2.0	-7.2	.	.	5.3	6.7
NC(=O)CS(=O)(=O)c1ccc(Cl)cc1	10.5	-1.3	3.3	.	1.4	i	1.0	0.6
CC1CC(C(F)(F)F)n2ncc(C(=O)O)c2N1 (configuration not stated)	0.2	-4.7	.	-12.4	-7.9	.	-2.9	-1.4
CCOC1OC2C(CO)OC(n3cnc4c(N)ncnc43)C2O1 (configuration not stated)	4.4	5.5	-31.0	-13.9	-11.2	i	3.2	5.5
CCCOc1ccc([C@@H]2C3CN(C(=O)OCC)CC=C3C(C#N)=C(N)C2(C#N)C#N)cc1OC (some centres not stated)	5.2	-5.8	.	.	-2.8	i	-41.6	-7.7
O=C(OCC(=O)N1CCN(S(=O)(=O)c2ccc(Cl)cc2)CC1)c1cc(Br)ccc1O	.	.	7.7	-11.8	.	i	-3.3	-1.1
Cn1/c(=N/NC(=O)c2cccc(OC(F)F)c2)sc2ccccc21	4.4	4.8	.	.	26.8	i	17.2	16.9
COc1ccc2[nH]c3c(c2c1)CCN1C(=O)C(CC(=O)NCCCN(C)C)C[C@H](C(=O)N2CCCCC2)[C@@]31CCc1ccccc1 (some centres not stated)	.	.	-21.6	-34.7	.	.	-3.2	-1.1

In the list so far, two contain a CF3 group.
SMILES	eIF4H FP inh	PABP polyA inh	HIV Env fusion	Yeast UUG start	CSC inhib	Rce1 inh	MT1-MMP act inh	MT1-MMP act inh RFP
Cc1c(C(=O)Nc2nnc(C(F)(F)F)s2)oc2ccccc12	-3.9	2.4	.	-10.9	.	i	-1.8	-23.6
CC1CC(C(F)(F)F)n2ncc(C(=O)O)c2N1 (configuration not stated)	0.2	-4.7	.	-12.4	-7.9	.	-2.9	-1.4

Compound activity from PubChem.
